Source: PubChem
Sfp inh: Sfp phosphopantetheinyl transferase inhibition. Potency, µM, inactives show max response, negative = inhibition, actives largely listed as inhibitors. Biochemical Sfp PPTase activity, qHTS. actives 3.5% (n = 310,000). AID 1490; active = well fitted inhibition curve with a large enough effect; inconclusive = small, poorly fitted or top-dose-only effect, or another doubt; inactive = no such curve, though single readings can be large or run the other way;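 also: the enzyme is Sfp with the accession as filed and its product quenches rhodamine fluorescence; potency is read from the fitted curve at half-maximal effect; 0% = enzyme reaction without inhibitor and -100% = no enzyme wells; top concentration of the series not given in the record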
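With Hepes-Na pH 7.6 buffer containing 10 mM MgCl2, Sfp (15 nM) modified BHQ-2-YbbR (12.5 uM) using rhodamine-CoA (5 uM). Two reads 30 minutes apart at 525/598 nm yielded each well's rate.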
ClpP mod: qHTS Assay for Activators of ClpP | ATP-dependent Clp protease proteolytic subunit (Bacillus subtilis (strain 168)), P80244 | purified B. subtilis ClpP, FRET peptide cleavage, 20 min | Potency, µM (highest dose often 57.5 µM), for inactives: at the highest dose activity change, negative = active | actives 1.9% (n = 340,000) | AID 651965, 2013; active = well fitted falling curve with a large enough effect; inconclusive = small, poorly fitted or top-dose-only effect; inactive = no such curve, though single readings can be large or run the other way; also: potency is read from the fitted curve at half-maximal effect; the source files actives as falling curves though it sought activators and does not explain the sign; nearly all actives have a fitted effect of over 65% in size; many hits overshoot -100%
Target sequence (P80244 whole entry, looked up): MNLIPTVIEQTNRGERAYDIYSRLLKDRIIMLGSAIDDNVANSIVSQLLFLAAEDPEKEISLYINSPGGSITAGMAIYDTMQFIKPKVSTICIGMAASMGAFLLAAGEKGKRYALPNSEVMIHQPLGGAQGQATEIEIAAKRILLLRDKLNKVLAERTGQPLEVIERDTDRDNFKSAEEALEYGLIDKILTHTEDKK
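Buffer: 100 mM Tris/HCl pH8, 100 mM KCl, 0.05% low protease BSA, 2.5% glycerol, 0.01% Tween-20. ClpP 10 microg/mL final; 20 min RT; delta FRET normalized to ADEP and DMSO controls.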
Menin MLL FP FL: displaces fluorescein MLL peptide from human menin | Fluorescence polarization, fluorescein-MLL peptide displacement from menin | FP activity change, % at 61.4 µM | 290,000 tested, under 10 active | AID 1766; inconclusive = falling polarisation curve, or a change in total fluorescence; inactive = total fluorescence flat and polarisation flat or rising; no compound was filed as active; the % refers to the polarisation; negative = inhibition;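 also: % of control where 0% means no effect; inhibitors lower the polarisation; unlabelled MLL peptide was the positive control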
gsp antag: antagonizes gsp, the McCune-Albright syndrome mutation; actives 0.4% (n = 340,000); Potency, µM (doses to about 76.9 µM), inactives show at the top dose activity change, negative = inhibition, usual class: inhibitors; gsp-mutant cells, cAMP HTRF, 30 min; control for the full effect not named in the record; active = falling curve of any shape with a large fitted effect; inconclusive = falling curve, mostly with a smaller effect; inactive = flat or rising curve; cell line not stated here;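 also: intracellular cAMP measured with PDE inhibitor Ro 20-1724 present during compound exposure; potency is read from the fitted curve at half-maximal effect; % is scaled to controls: 0 for no effect and ±100 for the full control effect; nearly all actives have a fitted effect of over 65% in size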
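Cells in G418 medium, seeded 16-24 h, 37C; buffer exchange to DPBS + 1 mM CaCl2, 0.5 mM MgCl2, 0.05% BSA; cpds in DMSO + […] (300 uM stock), 30 min 37C; HTRF cAMP detection.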
PINK1 modulator: PINK1 expression modulation | PINK1 immunofluorescence, high-content cytometry, 24 h | AID 624263 | Potency, µM (top dose mostly 76.6 µM), for the others: at the top dose activation (PINK1 increase), hits mostly activators | actives 0.2% (n = 410,000); active = well fitted activation curve with a large enough effect; inconclusive = small, poorly fitted or top-dose-only effect; inactive = flat fitted curve, though single readings scatter; cell line not stated here;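 also: potency is read from the fitted curve at half-maximal effect; % of control where 0% means no effect; nearly all actives have a fitted effect of over 65% in size; a mitochondrial uncoupler was the plate control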
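Compound titrations (5 concentrations, 24 h) on a stable cell line; DMSO and CCCP controls. Endpoint: fixed-cell PINK1 immunofluorescence with mitochondrial, cell and nuclear markers, scanned by microplate cytometer.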
D2 ag: activates the human D2 dopamine receptor. DiscoveRx PathHunter D2 beta-arrestin, luminescence, 90 min; 100% = 57 uM dopamine signal. actives 0.084% (n = 360,000). activation, % (test concentration not listed). P14416; in the data active = activation above about 40%; inconclusive = about 15% to 40%; inactive = below about 15%; also: compound concentration not given in the record; the text of the record calls up to 30% inactive
Target sequence (P14416 whole entry, looked up): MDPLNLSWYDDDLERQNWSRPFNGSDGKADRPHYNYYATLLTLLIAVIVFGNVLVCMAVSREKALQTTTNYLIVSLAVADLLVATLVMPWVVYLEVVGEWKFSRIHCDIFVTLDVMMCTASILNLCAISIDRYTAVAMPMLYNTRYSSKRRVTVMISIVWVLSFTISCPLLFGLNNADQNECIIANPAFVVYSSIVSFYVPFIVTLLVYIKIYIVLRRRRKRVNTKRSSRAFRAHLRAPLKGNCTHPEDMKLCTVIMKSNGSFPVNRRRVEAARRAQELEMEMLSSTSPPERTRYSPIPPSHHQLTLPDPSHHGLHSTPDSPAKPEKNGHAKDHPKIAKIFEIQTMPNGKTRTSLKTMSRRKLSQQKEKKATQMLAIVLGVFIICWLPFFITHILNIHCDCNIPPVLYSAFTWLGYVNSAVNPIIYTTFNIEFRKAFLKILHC
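Agonist mode: compounds alone added to overnight-plated D2 PathHunter cells for 90 min at 37 C, with 57 uM final dopamine (EC100) defining full response. Beta-arrestin recruitment detected by chemiluminescent reagent, read after 1 h at ambient temperature.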
gsp ag: agonists of gsp mutant (McCune-Albright syndrome); gsp mutant cells, cAMP HTRF, 30 min; control for the full effect not named in the record; Potency, µM (highest dose often 76.9 µM), inactives show at the highest dose activation (cAMP increase), actives largely listed as activators; actives 0.13% (n = 340,000); active = well fitted activation curve with a large enough effect; inconclusive = small, poorly fitted or top-dose-only effect, or another doubt; inactive = no such curve, though single readings can be large or run the other way; cell line not stated here;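 also: phosphodiesterase inhibitor Ro 20-1724 added with compounds to block cAMP breakdown; potency is read from the fitted curve at half-maximal effect; nearly all actives have a fitted effect of over 60% in size; about a fifth of the inactives were tested at one dose only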
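Cells in DMEM/10% FBS with G418 were pretreated with compounds in DMSO plus […] (300 uM stock) for 30 min at 37C. cAMP was measured by HTRF (cAMP-d2 plus anti-cAMP antibody-K) after 30 min at room temperature.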
The depositor's hits bear a star; u = inconclusive; x = not tested or not shown; & = joins results of further samples; [ ] = dose if it differs, or a comment.

SMILES	Sfp inh	ClpP mod	Menin MLL FP FL	gsp antag	PINK1 modulator	D2 ag	gsp ag
CCN(Cc1ccc2c(c1)OCO2)C(=O)/C=C/c1cccc(Br)c1	-22%	x	-2.5	u	0.0%	-0.7	u
C=C(C)C(=O)N1CC2(CC(c3cccc(NC(=O)c4ccccc4)c3)=NO2)C[C@@H]1C(N)=O (some centres not stated)	6%	-0.1%	0.2	7%	-0.1%	-1.8	4%
CC(=O)c1nn(-c2cccc(Br)c2)cc1C(=O)c1ccccc1	19%	-10%	3.5	2%	15%	-3.0	26%
CC(C)(SC(=S)N1CCOCC1)C(=O)O	-10%	-2.5%	-0.2	3%	1.7%	0.4	12%
COC(=O)C1=C(C)N(C)C(=O)/C1=C\c1cccs1	9%	-1.4%	5.5	-16%	x	1.8	-56%[inhibitor]
C[C@H](NC(=O)c1nc[nH]c1C(=O)NCC(=O)OC(C)(C)C)C(=O)OCc1ccccc1	13%	0.2%	1.3	-16%	2.2%	7.5	8%
CCOc1ccc(Oc2c(C)oc3cc(O)ccc3c2=O)cc1	8%	x	4.7	-7%	-1.0%	1.6	16%
Cc1cc(O)c(NC(=O)c2ccc(Br)o2)cc1C	-7%	0.5%	1.9	17%	-3.7%	-1.8	-17%
CSc1ccc(/C=N/n2c(C)cc(C)cc2=O)cc1	6%	10%	5.2	5%	-0.8%	-1.3	21%
CSc1ccc(CN2CCC(C)(Oc3ccc4ccccc4c3)C2)cc1 (configuration not stated)	x	u	x	x	u	9.3	x
C=CCN1C(=O)CS/C1=N/c1nccs1	4%	u	0.8	12%	5.8%[38.3 µM]	-2.9	22%
CCOc1ccc(-n2c(-c3ccc(Br)cc3)c[n+]3c2CCCCC3)cc1	6%	x	0.8	2%	u	-0.3	11%
COc1ccc(CN2CCN(Cc3ccc(CO)o3)CC2CCO)cc1C (configuration not stated)	15%	x	3.7	12%	1.7%	1.4	-75%[inhibitor]
Cc1cccc(OCC(=O)NNC(=O)CSc2ncc(C#N)c(N)n2)c1	18%	-5.5%	-1.1	5%	-19%[38.3 µM]	-0.3	24%
COC(=O)CSc1cc(C)nc2ccc(OC)cc12	14%	-1.4%	2.4	6%	0.0%	-1.3	31%
CSc1nsc2nc(=O)c(/C=C3\C(C)=Nc4ccccc43)c(N)n12	9%	x	19	u	0.7%	-0.8	-17%[15.4 µM]
Cc1nc(C)c(C(=O)OCC(=O)N2CCN(c3ccccc3)CC2)s1	-7%	-0.6%	-0.3	4%	3.3%[38.3 µM]	0.4	4%
Cc1cc(C)c2cc(CN(Cc3ccco3)C(=O)NCc3ccccc3)c(=O)[nH]c2c1	-21%	u	8.9	-3%	-1.8%	-5.0	6%
CCC(C)NC(=O)Cn1c(COc2ccc(Cl)cc2Cl)nc2ccccc21 (configuration not stated)	15%	0.8%	-2.8	12%	3.9%	-3.0	-13%
O=C(Nc1ccccn1)c1ccc(C(=O)Nc2ccccn2)cc1	4%	1.5%	-5.6	11%	3.5%	-4.2	33%
O=C(O)COc1ccc(NC(=O)c2ccc3c(c2)C(=O)N(Cc2ccccc2)C3=O)cc1	7%	1.2%	0.7	-1%	3.5%	-2.3	-14%[15.4 µM]
S=c1nc[nH]c2c1ncn2C1CCCO1 (configuration not stated)	4µM*	x	u	10%	4.3%	-6.6	-5%[15.4 µM]
CCOC(=O)N1CCN(C(=O)c2ccccc2NC(=O)COc2ccccc2)CC1	0%	x	x	-3%	1.1%	1.0	2%[15.4 µM]
CCC1=NN2C(=N)/C(=C/c3cc(C)n(Cc4ccccc4)c3C)C(=O)N=C2S1	0%	25µM*	1.6	-31%	1.4%	-9.8	11%[15.4 µM]
COc1cccc(OC)c1C(=O)Nc1ccc(Br)c(C(=O)c2ccccc2)c1	2%	-1.2%	-2.7	u	0.1%	-3.1	-29%

Structures listed so far with a furan ring, fused or not:
SMILES	Sfp inh	ClpP mod	Menin MLL FP FL	gsp antag	PINK1 modulator	D2 ag	gsp ag
Cc1cc(O)c(NC(=O)c2ccc(Br)o2)cc1C	-7%	0.5%	1.9	17%	-3.7%	-1.8	-17%
COc1ccc(CN2CCN(Cc3ccc(CO)o3)CC2CCO)cc1C (configuration not stated)	15%	x	3.7	12%	1.7%	1.4	-75%[inhibitor]
Cc1cc(C)c2cc(CN(Cc3ccco3)C(=O)NCc3ccccc3)c(=O)[nH]c2c1	-21%	u	8.9	-3%	-1.8%	-5.0	6%

New compounds follow:
SMILES	Sfp inh	ClpP mod	Menin MLL FP FL	gsp antag	PINK1 modulator	D2 ag	gsp ag
COc1ccc(-n2ncc(C(C)NS(=O)(=O)c3cc(F)ccc3C)c2C)cc1 (configuration not stated)	-2%	-5.7%	x	0%	u	-1.8	1%
COc1cc(OC)c(NS(=O)(=O)c2cc(C(=O)OC(C)C(=O)NC3CC3)c(Cl)cc2Cl)cc1Cl (configuration not stated)	4%	-2.1%	3.9	-11%	0.0%	-2.1	4%
Cc1cc(NC2CCCCC2)nc(N2CCOCC2)n1	11%	1.2%	0.8	7%	x	-1.8	-28%
COc1ccc(-n2cnc3sccc3c2=O)cc1	18%	x	-1.1	5%	0.6%	-5.6	29%
Cn1c(SCC(=O)Nc2cccc(S(=O)(=O)N3CCOCC3)c2)nnc1-c1ccncc1	6%	x	4.2	x	2.1%	0.6	-21%[15.4 µM]
O=C(Nc1ccc2[nH]ccc2c1)c1cccs1	6%	-0.1%	1.2	10%	2.6%	1.2	x
Cc1ccc(C)c(Cn2nnc3c(=O)[nH]c(C4CCCN(C(=O)c5cccs5)C4)nc32)c1 (configuration not stated)	-26%	x	-1.7	17%	1.4%	2.0	12%
COc1ccccc1CNc1nc(NCc2ccccc2)nc2ccsc12	x	u	x	x	u	-2.5	x
COC(=O)c1cccc(NC(=O)c2ccc3c(c2)C(=O)N(CC2CCCO2)C3=O)c1 (configuration not stated)	-29%	0.3%	3.8	-14%	1.7%	-3.4	u
Cc1nc(C(=O)NNC(=O)c2ccc(C(F)(F)F)cc2)cs1	23%	-0.1%	0.5	14%	-1.7%	4.0	-2%[15.4 µM]
CCC(C(=O)Nc1ccccc1-c1ccccc1)c1ccccc1 (configuration not stated)	-4%	0.4%	0.1	0%	1.3%	-3.9	u
Cc1ccc([N+](=O)[O-])cc1S(=O)(=O)Nc1ccc(C(=O)N(C)C)cc1	18%	x	-0.1	-19%	3.5%	0.5	3%[15.4 µM]
Cc1ccc(NC(=O)CNC(=O)CN2C(=O)c3ccccc3C2=O)cc1	x	1.7%	x	x	-0.1%	-3.3	x
COc1cccc(NC(=O)C2C3C=CC(O3)C2C(=O)O)c1 (configuration not stated)	-9%	x	-5.0	-3%	-1.7%	-1.5	18%
COc1ccc([C@H]2CC(=O)C=C(c3cc(Cl)ccc3OC)C2)cc1	x	-2.1%	x	-2%	2.4%	-4.4	-4%
Cc1cc(C)cc(NC(=O)CN2CCC(NC(=O)c3cccc(F)c3)CC2)c1	6%	2.4%	2.1	7%	1.8%	-1.5	-8%[15.4 µM]
CCSc1ccc(-c2cc(NC=O)c3ncc(-c4cccc(C(=O)NCCN(C)C)c4)n3c2)cc1	x	-29%	x	x	-1.4%	7.9	x
COc1cccc(NC(=O)C2(C)CCCN(C(C)C)C2)c1 (configuration not stated)	x	-1.6%	x	x	1.5%	-3.5	x
COCCn1c(-c2ccccc2)cnc1SCC(=O)Nc1cccc2ccccc12	-15%	-4.0%	0.8	-10%	2.9%	3.0	u
CC(=O)N1CCC2(CC1)CN(C(c1ccccc1)c1ccccc1)C2	0%	x	-0.5	x	-0.8%	x	x
CN=C(N)NCCC[C@H](N)C(=O)O	-12%	-6.8%	-2.4	-7%	2.5%	2.0	x
OC(c1ccc(F)cc1)c1nc(-c2cncnc2)cs1 (configuration not stated)	x	0.9%	x	x	1.6%	-4.1	x
C=CCN1C(=O)c2ccccc2Sc2ccc(C(=O)NCCC)cc21	15%	1.4%	5.0	-4%	1.1%	3.2	-19%
Cc1cccc(NC(=O)c2csnn2)n1	19%	x	2.6	9%	0.3%	1.6	u
Cc1cccc(CC(=O)Nc2c3c(nn2-c2cccc(Cl)c2)CS(=O)C3)c1 (configuration not stated)	-4%	0.0%	-0.1	-1%	0.8%[38.3 µM]	3.1	-23%

The listing continues.
SMILES	Sfp inh	ClpP mod	Menin MLL FP FL	gsp antag	PINK1 modulator	D2 ag	gsp ag
Cc1noc(C)c1COC(=O)c1ccc2ccccc2n1	-1%	-11%	1.7	-6%	-0.1%	-2.7	-9%
CCc1nc2c(OCc3ccc(Cl)cc3)cccn2c1N(C)C(=O)c1ccccc1F	x	-0.7%	x	x	23%	-5.3	x
Cc1cc(CN2CCCCC2)oc1C(=O)O	16%	1.6%	1.0	1%	x	-1.0	1%
O=C1OCCN1CC(=O)N1CCc2c([nH]c3ccccc23)C1c1ccccn1 (configuration not stated)	14%	x	-0.1	2%	-0.1%	-0.6	12%
CCc1cccc2sc(N3CCN(C(=O)c4ccc([N+](=O)[O-])o4)CC3)nc12	x	0.4%	x	u	-4.2%	4.7	2%
Cn1c(=NC(=O)CN2C(=O)C3CC=CCC3C2=O)sc2ccccc21 (configuration not stated)	6%	-0.5%&2.5%	2.1	-12%&-7%	-3.5%&-0.5%	-4.4&-0.4	1%&1%
COc1cc(C2C(C(=O)N3CCOCC3)=C(C)NC3=C2C(=O)CCC3)ccc1OC(C)=O (configuration not stated)	u	u	2.6	3%	x	-1.9	4%
COc1c(OC(C)=O)ccc(/C=C/c2ccc3cccc(OC)c3n2)c1[N+](=O)[O-]	-3%	-3.8%	1.8	-29%	1.7%	-7.6	1%
Cc1ccc2nc(NC(=O)CSc3ncnc4c3oc3ccccc34)sc2c1	-17%	-1.9%	1.8	13%	11%	-0.5	19%
Cc1sc2ncnc(N3CCC(C(=O)N4CC(C)SC4=Nc4ccc(Cl)cc4)CC3)c2c1C (configuration not stated)	x	-0.6%	x	1%	0.1%	0.3	2%
CCOc1ccc(C(C)=O)cc1CN1C(=O)C(=O)N(CC)C1=O	-4%	1.3%	-0.9	-4%	-1.1%	-0.7	-29%
COc1ccc(C(=O)Nc2nc3ccccc3[nH]2)cc1OC	17%	-1.1%	2.2	-4%	4.4%[38.3 µM]	-3.2	-2%
